Screening results deposited in PubChem by Broad Institute.
rRNA inh HTS = inhibitors of bacterial rRNA selective over humanized ribosomes; E. coli WT GFP vs humanized-ribosome RFP mutants, fluorescence, 24 h; hits give low values; DMSO median 0, no signal -100; GFP signal change (wild-type ribosome), % (no concentration beside the values); hit rate 1.6% among 350,000; AID 720706;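 active = significant combined selectivity score with lowered wild-type GFP, culture density cut under 30%, mutant RFP and density less affected; inactive = any of these conditions unmet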; also: one replicate is shown; some compounds called inactive have numbers as strong as hits
FGF22 binding = FGF22 (human) thermal shift binding | recombinant FGF22 thermal shift, SYPRO orange fluorescence; percent of sucrose octasulfate shift, DMSO zero | Q9HCT0 | calls only at 9.99 µM | hit rate 1.5% among 340,000;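 active = melting point raised past a set limit in the mean and every replicate; three in four hits are not shown here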
Target sequence (Q9HCT0 whole entry, looked up): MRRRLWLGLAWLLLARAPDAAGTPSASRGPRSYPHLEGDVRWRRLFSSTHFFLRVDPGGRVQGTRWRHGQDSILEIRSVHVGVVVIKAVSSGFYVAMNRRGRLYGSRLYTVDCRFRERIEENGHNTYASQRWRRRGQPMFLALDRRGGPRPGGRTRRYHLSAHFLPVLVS
rRNA inh HTS OD600 = second read-out of rRNA inh HTS, no call of its own (marks repeat the call); OD600 change, %; measured here: OD600 growth;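 optical density of the mix in the first replicate; 0 = DMSO median and -100 = no signal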
rRNA inh HTS RFP = further read-out of rRNA inh HTS, marked with its call; RFP signal change, %; measured here: RFP humanized mutant strains;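 first replicate; 0 = DMSO median and -100 = no signal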
* = called active by the depositor; i = inactive; . = not tested or not shown; & = joins results of further samples. The list is partial, so the mix of outcomes need not match the whole.

SMILES	rRNA inh HTS	rRNA inh HTS OD600	rRNA inh HTS RFP	FGF22 binding
C[C@H]1CCCCO[C@@H](CN(C)Cc2ccc3c(c2)OCO3)[C@@H](C)CN([C@@H](C)CO)C(=O)c2cc(NS(=O)(=O)c3cccs3)ccc2O1	-1.0	-1.4	-0.2	i
Cc1ccc(CN2C(=O)CSCC2(C)C(=O)NCc2ccccc2)cc1 (configuration not stated)	-5.7	1.4	1.3	i
C[C@@H]1CCCCO[C@@H](CN(C)C(=O)Nc2cccc3ccccc23)[C@H](C)CN([C@H](C)CO)C(=O)c2cc(NC(=O)Nc3ccccc3)ccc2O1	3.7	1.7	2.0	i
C[C@@H]1CN([C@H](C)CO)S(=O)(=O)c2ccc(C#Cc3ccccn3)cc2O[C@@H]1CN(C)C	6.1	13.4	-1.8	i
C[C@@H]1CCCCO[C@H](CN(C)Cc2ccc(C(F)(F)F)cc2)[C@@H](C)CN([C@@H](C)CO)C(=O)c2cc(NC(=O)C3CCCCC3)ccc2O1	-2.2	-6.6	10.1	i
C[C@H](CO)N1C[C@H](C)[C@@H](CN(C)S(=O)(=O)c2cccs2)Oc2ccc(NC(=O)CCCCCC(=O)Nc3ccccc3N)cc2CC1=O	0.5	5.2	1.7	i
COC(=O)C[C@@H]1CC[C@@H]2[C@@H](COc3ccc(NS(C)(=O)=O)cc3C(=O)N2C)O1	1.2	1.1	-0.4	i
O=C(Cc1c[nH]c2ccccc12)Nc1ccc(Nc2cccnc2)c(-c2cccc(Cl)c2)c1	-5.0	-16.6	1.3	i
C[C@@H]1CCCCO[C@H](CN(C)S(=O)(=O)c2cccs2)[C@@H](C)CN([C@@H](C)CO)C(=O)c2cc(NC(=O)Cc3ccccc3)ccc2O1	-2.5	-4.2	0.5	i
C[C@H]1CCCCO[C@H](CN(C)C(=O)Nc2cccc3ccccc23)[C@@H](C)CN([C@@H](C)CO)C(=O)c2cc(NS(=O)(=O)c3cn(C)cn3)ccc2O1	-3.0	-8.5	1.7	i
C[C@@H]1CCCCO[C@@H](CN(C)CC2CC2)[C@@H](C)CN([C@H](C)CO)C(=O)c2cc(NC(=O)Nc3cccc4ccccc34)ccc2O1	3.3	1.4	0.1	i
NC(=O)c1ncn([C@@H]2O[C@H](C(=O)Nc3ccc(C(=O)N4CCCCC4)cc3)[C@@H](O)[C@H]2O)n1	15.7	16.3	0.8	i
C[C@@H]1CCCCO[C@H](CN(C)Cc2ccc(C(=O)O)cc2)[C@@H](C)CN([C@@H](C)CO)C(=O)c2cc(NS(=O)(=O)c3ccccc3)ccc2O1	7.2	3.4	-0.6	i
COC(=O)C1=C(C)N(Cc2cccc(C(F)(F)F)c2)C(=NCc2ccccc2C(F)(F)F)NC1c1cccc(F)c1 (configuration not stated)	-4.1	-33.0	15.5	i
CNC(=O)C[C@H]1CC[C@H]2[C@@H](COc3ccc(NC(=O)C(C)C)cc3C(=O)N2C)O1	2.6	3.7	0.0	i
C[C@@H]1CN([C@@H](C)CO)C(=O)c2cc(NS(=O)(=O)c3ccc(F)cc3)ccc2O[C@@H](C)CCCCO[C@H]1CN(C)C(=O)Nc1ccc(F)cc1	-1.7	-2.7	1.6	i
C[C@@H]1CN([C@@H](C)CO)C(=O)c2cc(NS(=O)(=O)c3ccc(Cl)cc3)ccc2O[C@@H](C)CCCCO[C@@H]1CN(C)S(=O)(=O)c1ccc(Cl)cc1	-5.2	-2.7	-4.9	i
Cn1cnc(S(=O)(=O)N2CC[C@@H]3[C@H]2c2cc(-c4ccccc4F)ccc2N[C@@H]3CO)c1	-1.6	-5.8	1.3	i
C[C@@H]1CCCCO[C@H](CN(C)S(=O)(=O)c2cccs2)[C@@H](C)CN([C@H](C)CO)C(=O)c2cc(NC(=O)Nc3cccc4ccccc34)ccc2O1	3.6	11.5	-2.4	i
O=C(C[C@H]1CC[C@H]2[C@@H](COC[C@@H](O)CN2C(=O)Nc2cccc(F)c2)O1)NCc1ccccc1Cl	-7.8	-2.2	2.2	i
CNC(=O)C[C@@H]1CC[C@H]2[C@H](COc3ccc(NC(=O)c4cc(C)on4)cc3C(=O)N2C)O1	1.6	5.2	-3.6	i
COc1cc(CN2C[C@@H]3N[C@H](C2)C3c2ccc(/C=C/c3ccccc3)cc2)cc(OC)c1 (some centres not stated)	-60.9&-62.0	-75.4&-72.9	-11.9&-12.9	i
COCC(=O)N(C)C[C@@H]1Oc2cc(C#CC(C)C)ccc2S(=O)(=O)N([C@@H](C)CO)C[C@H]1C	-0.4	3.0	0.8	i
O=C(N[C@H](Cc1ccccc1)C(=O)O)[C@H]1O[C@@H](n2ccc(=O)[nH]c2=O)[C@H](O)[C@@H]1O	14.9	15.4	2.7	i
C[C@@H]1CCCCO[C@H](CN(C)CC2CC2)[C@@H](C)CN([C@H](C)CO)C(=O)c2cc(NC(=O)Nc3cccc4ccccc34)ccc2O1	0.0	-1.2	-1.6	i
COc1ccc(NC(=O)N(C)C[C@@H]2OCCCC[C@@H](C)Oc3ccc(NC(=O)Nc4cccc5ccccc45)cc3C(=O)N([C@@H](C)CO)C[C@@H]2C)cc1	-3.2	-2.2	-1.1	i
C[C@@H]1CN([C@H](C)CO)C(=O)Cc2cc(NS(=O)(=O)c3ccccc3)ccc2O[C@@H]1CN(C)S(=O)(=O)c1ccc(Cl)cc1	0.1	-6.8	2.4	i
CCCNC(=O)C[C@H]1CC[C@H]2[C@H](COc3ccc(NC(=O)c4ccc(OC)cc4)cc3C(=O)N2C)O1	-1.5	-5.3	0.9	i
COc1ccc(S(=O)(=O)N(C)C[C@@H]2Oc3ccc(NC(=O)Nc4ccc(F)cc4)cc3CC(=O)N([C@@H](C)CO)C[C@@H]2C)cc1	-2.0	-5.2	5.7	i
C[C@@H]1CCCCO[C@H](CN(C)C(=O)NC2CCCCC2)[C@H](C)CN([C@H](C)CO)C(=O)c2cc(NS(C)(=O)=O)ccc2O1	-3.6	-2.4	1.6	i
COc1ccc(-c2ccc3c(c2)[C@H]2[C@H](CCN2C(=O)Cc2ccccc2)[C@H](CO)N3C)cc1	-55.4	-74.5	-14.9	i
Cc1ccc(S(=O)(=O)N(C)C[C@@H]2Oc3ncc(Br)cc3C(=O)N([C@@H](C)CO)C[C@@H]2C)cc1	-7.3	0.6	-0.5	i
O=C(C[C@@H]1C[C@@H]2c3cc(NC(=O)Nc4ccccc4)ccc3O[C@@H]2[C@@H](CO)O1)NCc1cccnc1	-1.4	4.3	2.6	i
O=C(C[C@H]1CC[C@@H]2[C@H](COC[C@H](O)CN2CCC(F)(F)F)O1)NCc1ccc(Oc2ccccc2)cc1	0.3	-13.0	10.6	i
O=C(C[C@@H]1CC[C@@H]2[C@H](COC[C@@H](O)CN2S(=O)(=O)c2cccc(F)c2)O1)Nc1ccccc1	7.6	7.8	2.0	i
COc1ccc(NC(=O)Nc2ccc3c(c2)C(=O)N([C@@H](C)CO)C[C@H](C)[C@@H](CN(C)S(=O)(=O)c2ccc(OC)cc2)OCCCC[C@H](C)O3)cc1	2.8	9.9	-2.4	i
Cc1noc(C)c1NC(=O)N(C)C[C@@H]1Oc2ccc(NS(C)(=O)=O)cc2CC(=O)N([C@@H](C)CO)C[C@H]1C	4.9	4.4	-0.8	i
COc1ccc(S(=O)(=O)Nc2ccc3c(c2)C(=O)N([C@@H](C)CO)C[C@@H](C)[C@@H](CN(C)S(=O)(=O)c2ccc(Cl)cc2)O3)cc1	-2.3	-13.3	2.3	i
O=C(c1ccccc1)N1CC[C@@H]2[C@H](CO)Nc3ccc(-c4ccc(F)cc4)cc3[C@@H]21	-0.1	-5.7	3.5	i
C[C@@H]1CN([C@@H](C)CO)C(=O)c2cc(NC(=O)NC3CCCCC3)ccc2O[C@@H](C)CCCCO[C@@H]1CN(C)CC1CCCCC1	-2.8	-28.4	18.1	i

4 compounds from above with just rRNA inh HTS and rRNA inh HTS RFP:
Structure,rRNA inh HTS,rRNA inh HTS RFP
COc1ccc(-c2ccc3c(c2)[C@H]2[C@H](CCN2C(=O)Cc2ccccc2)[C@H](CO)N3C)cc1,-55.4,-14.9
Cc1ccc(S(=O)(=O)N(C)C[C@@H]2Oc3ncc(Br)cc3C(=O)N([C@@H](C)CO)C[C@@H]2C)cc1,-7.3,-0.5
O=C(C[C@@H]1C[C@@H]2c3cc(NC(=O)Nc4ccccc4)ccc3O[C@@H]2[C@@H](CO)O1)NCc1cccnc1,-1.4,2.6
O=C(C[C@H]1CC[C@@H]2[C@H](COC[C@H](O)CN2CCC(F)(F)F)O1)NCc1ccc(Oc2ccccc2)cc1,0.3,10.6

Further structures:
SMILES	rRNA inh HTS	rRNA inh HTS OD600	rRNA inh HTS RFP	FGF22 binding
C[C@@H]1CN([C@@H](C)CO)C(=O)c2cc(NS(=O)(=O)c3cccs3)ccc2O[C@@H](C)CCCCO[C@@H]1CN(C)Cc1ccc2c(c1)OCO2	-0.9	-4.2	-3.4	i
COc1ccc(N)cc1CN1CCN(c2ncc(Cc3ccccc3)cn2)CC1	-0.7	-4.3	8.6	i
Cc1ccc(CNC(=O)[C@@H](Cc2ccccc2)NC(=O)[C@H]2O[C@@H](n3ccc(N)nc3=O)[C@H](O)[C@@H]2O)o1	6.8	18.8	0.2	i
COC(=O)C1=C(C)N(Cc2cccc(C(F)(F)F)c2)C(=NCc2cccc(C(F)(F)F)c2)NC1c1ccc(Cl)cc1 (configuration not stated)	-43.8	-73.7	-13.1	i
COCCNC(=O)C[C@@H]1C[C@H]2c3cc(NS(=O)(=O)c4ccc(F)cc4)ccc3O[C@H]2[C@H](CO)O1	-0.4	-10.7	0.5	i
O=C(O)C[C@@H]1CC[C@@H]2[C@H](COC[C@@H](O)CN2S(=O)(=O)c2ccc(Oc3ccccc3)cc2)O1	i	.	.	i
Cc1nccn1-c1ccc(NC(=O)[C@@H](Cc2ccccc2)NC(=O)[C@H]2O[C@@H](n3ccc(=O)[nH]c3=O)[C@H](O)[C@@H]2O)cc1	-5.5	-6.0	0.5	i
CCCNC(=O)C[C@@H]1CC[C@H]2[C@@H](COc3ccc(NC(=O)c4cc(F)cc(F)c4)cc3C(=O)N2C)O1	0.9	3.3	-2.0	i
CCOC(=O)C1=CCN(S(=O)(=O)c2ccccc2C)C1c1cccc(Cl)c1 (configuration not stated)	-12.6	-38.8	-5.8	i
CCc1ccc(N2C=C(C(=O)OC)C(c3ccc(OC)cc3)C(C#N)=C2N)cc1 (configuration not stated)	-3.2	-16.2	9.1	i
CCC(c1nc2ccccc2[nH]1)n1c(-c2ccc3ccccc3c2)nc2ccccc21 (configuration not stated)	6.5	-20.1	0.0	i
CCCCCCC(=O)NC1CCCCN(C)C1=O (configuration not stated)	10.1	9.2	-0.8	i
CNC[C@H]1OCCCC[C@@H](C)Oc2ccc(NS(=O)(=O)c3c(C)noc3C)cc2C(=O)N([C@H](C)CO)C[C@@H]1C	4.2	7.2	-0.8	i
CN(C[C@H]1N[C@@H](CO)[C@@H]1c1ccc(-c2cccnc2)cc1)C(=O)c1ccccc1	-2.0	-5.6	-0.7	i
C[C@@H]1CCCCO[C@@H](CN(C)C(=O)NC2CCCCC2)[C@@H](C)CN([C@H](C)CO)C(=O)c2cc(NS(C)(=O)=O)ccc2O1	4.4	13.6	-4.0	i
CNC(=O)C[C@@H]1CC[C@H]2[C@@H](COc3ccc(NC(=O)NCc4ccccc4)cc3C(=O)N2C)O1	3.4	2.1	1.7	i
C[C@@H]1CN(c2ccc(N3CCN(C(=O)OC(C)(C)C)C[C@@H]3C)cc2C#N)C[C@H](C)O1	-19.4	-29.2	-2.1	i
C[C@@H]1CCCCO[C@H](CN(C)C(=O)Nc2ccccc2)[C@H](C)CN([C@@H](C)CO)C(=O)c2cc(NS(=O)(=O)c3ccc(F)cc3)ccc2O1	-2.6	-8.9	0.2	i
COC(=O)C1=C(C)N(Cc2ccccc2C(F)(F)F)C(=NCc2cc(OC)c(OC)c(OC)c2)NC1c1cccc(F)c1 (configuration not stated)	-12.3	-4.5	4.2	i
Cn1cc(CC(=O)Nc2ccc(Nc3cccnc3)cc2)c2ccccc21	-10.3	-23.4	-0.2	i
O=C(CC1CCCC1)N[C@H](C(=O)N1CCC[C@H]1C(=O)NC1CCCC1)c1ccccc1	0.8	10.1	3.2	i
O=C(C[C@@H]1CC[C@H]2[C@@H](COC[C@@H](O)CN2Cc2cc(F)ccc2F)O1)NCc1ccc(Cl)cc1	-4.6	-25.8	16.5	i
O=C(c1ccccn1)N1CC[C@@H]2[C@@H](CO)Nc3ccc(-c4cccc(F)c4)cc3[C@@H]21	-1.3	-3.3	3.0	i
Cc1noc(C)c1NC(=O)Nc1ccc2c(c1)C(=O)N([C@H](C)CO)C[C@H](C)[C@@H](CN(C)C(=O)Nc1cccc3ccccc13)OCCCC[C@@H](C)O2	2.0	5.2	-1.1	i
C[C@@H]1CCCCO[C@@H](CN(C)Cc2ccc3c(c2)OCO3)[C@H](C)CN([C@H](C)CO)C(=O)c2cc(NS(=O)(=O)c3cccs3)ccc2O1	0.5	-0.5	0.8	i
C[C@@H]1CN([C@@H](C)CO)C(=O)Cc2cc(NC(=O)Nc3ccc4c(c3)OCO4)ccc2O[C@@H]1CN(C)C(=O)Nc1ccc(F)cc1	-0.1	3.3	-1.2	i
